Screening data deposited in PubChem BioAssay by Broad Institute.
Yeast UUG start: modulators of yeast start codon fidelity, primary screen, whole organism, S. cerevisiae, single point, plate reader. 350,000 compounds, 0.13% hits. activity score, % at 18.7 µM. S. cerevisiae UUG-firefly luciferase reporter, luminescence/redox ratio;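 active = replicate mean at a twofold rise or more, about +100% in these data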;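 note: firefly luciferase made from a UUG start codon reports start codon fidelity; reporter light over untreated wells divided by growth signal over untreated wells; some hits fall short of that in this replicate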
The depositor's hits bear a star. These rows are one share of the data, so the mix of outcomes need not match the whole.

What do the screens show for `CC(C)NC(=O)N(C)C[C@@H]1Oc2ccc(NS(C)(=O)=O)cc2CC(=O)N([C@H](C)CO)C[C@H]1C`?
Yeast UUG start: -7

Results for CCCNC(=O)C[C@@H]1CC[C@@H]2[C@H](COc3ccc(NC(=O)Nc4c(C)noc4C)cc3C(=O)N2C)O1 ?
Yeast UUG start: 7

How did CN1c2ccc(-c3cccc(F)c3)cc2[C@H]2[C@H](CCN2C(=O)c2ccncc2)[C@@H]1CO do in these assays?
Yeast UUG start: -5

Results for CS(=O)(=O)Nc1ccc2c(c1)[C@@H]1C[C@@H](CC(=O)NCc3ccc(-c4ccccc4)cc3)O[C@@H](CO)[C@@H]1O2 ?
Yeast UUG start: 12

Results for COc1ccc(CN(C)C[C@@H]2Oc3c(NS(=O)(=O)c4ccc(F)cc4)cccc3C(=O)N([C@H](C)CO)C[C@@H]2C)cc1 ?
Yeast UUG start: -1

How did CCCC(=O)Nc1ccc2c(c1)OC[C@H](C)N(C(=O)c1ccccn1)C[C@H](C)[C@@H](OC)CN(C)C2=O do in these assays?
Yeast UUG start: 0

What do the screens show for `CC(=O)N(C)C[C@H]1[C@H](c2ccccc2)[C@@H](CO)N1C(=O)C1CC1`?
Yeast UUG start: -8

What do the screens show for `CC(C)(O)C#Cc1ccc([C@@H]2[C@H](CO)N3CCCCN(C(=O)c4cccnc4)C[C@@H]23)cc1`?
Yeast UUG start: 9

How did CN(C)C(=O)c1ccc(-c2ccc([C@@H]3[C@H](CO)N4CCCCN(Cc5cccnc5)C[C@@H]34)cc2)cc1 do in these assays?
Yeast UUG start: 0

Results for O=C(Nc1cccc(Cl)c1)N1C[C@@H]2[C@H](c3ccccc31)[C@H](CO)N2Cc1ccncc1 ?
Yeast UUG start: -7

Results for C[C@@H]1CN([C@@H](C)CO)C(=O)c2cccc(NC(=O)Nc3ccc(C(F)(F)F)cc3)c2O[C@H]1CN(C)S(=O)(=O)c1cn(C)cn1 ?
Yeast UUG start: 12

How did C[C@H](CO)N1C[C@H](C)[C@H](CN(C)S(=O)(=O)c2ccc(Cl)cc2)Oc2c(NC(=O)C3CC3)cccc2C1=O do in these assays?
Yeast UUG start: -25

How did CNC[C@@H]1Oc2ccc(NC(=O)NC3CCCCC3)cc2C(=O)N([C@@H](C)CO)C[C@H]1C do in these assays?
Yeast UUG start: 3

How did CO[C@@H]1CN(C)C(=O)c2cc(NC(=O)NC(C)C)ccc2OC[C@@H](C)N(Cc2ccc(-c3ccccn3)cc2)C[C@@H]1C do in these assays?
Yeast UUG start: 3

Results for CCCN1[C@H](C(=O)NC2Cc3ccccc3C2)[C@@H](CO)[C@@H]2Cn3c(ccc(C4=CCCC4)c3=O)[C@@H]21 ?
Yeast UUG start: 1

Overlap with the part before: four compounds; new compounds follow.
How did C[C@H](CO)N1C[C@H](C)[C@H](CN(C)S(=O)(=O)c2ccc(Cl)cc2)Oc2c(NC(=O)C3CC3)cccc2C1=O do in these assays?
Yeast UUG start: -25

How did CNC[C@@H]1Oc2ccc(NC(=O)NC3CCCCC3)cc2C(=O)N([C@@H](C)CO)C[C@H]1C do in these assays?
Yeast UUG start: 3

How did CO[C@@H]1CN(C)C(=O)c2cc(NC(=O)NC(C)C)ccc2OC[C@@H](C)N(Cc2ccc(-c3ccccn3)cc2)C[C@@H]1C do in these assays?
Yeast UUG start: 3

Results for CCCN1[C@H](C(=O)NC2Cc3ccccc3C2)[C@@H](CO)[C@@H]2Cn3c(ccc(C4=CCCC4)c3=O)[C@@H]21 ?
Yeast UUG start: 1

How did C[C@@H]1CN([C@H](C)CO)C(=O)Cc2cc(NC(=O)CCN3CCOCC3)ccc2O[C@H]1CN(C)S(=O)(=O)c1ccccc1 do in these assays?
Yeast UUG start: -7

How did Cc1ccc(-c2ccc([C@@H]3[C@H](CO)N4CCCCN(C(=O)Nc5cccc(F)c5)C[C@@H]34)cc2)cc1 do in these assays?
Yeast UUG start: -5

How did O=C(C[C@H]1CC[C@@H]2[C@H](COC[C@H](O)CN2Cc2ccncc2)O1)NCC1CC1 do in these assays?
Yeast UUG start: -11

How did O=C(c1ccncc1)N1C[C@H]2[C@@H](c3ccccc31)[C@@H](CO)N2C(=O)Nc1ccc(F)cc1 do in these assays?
Yeast UUG start: 87

Results for CN1C(=O)c2cc(NC(=O)C3CC3)ccc2OC[C@H]2O[C@@H](CC(=O)NCCN3CCCC3)CC[C@H]21 ?
Yeast UUG start: -6

Results for O=S(=O)(c1cccs1)N1CCCCN2[C@H](CO)[C@H](c3ccc(-c4ccccc4)cc3)[C@H]2C1 ?
Yeast UUG start: -2

Results for Cc1ccccc1S(=O)(=O)N1CCCCN2[C@H](C1)[C@@H](c1ccc(-c3cncnc3)cc1)[C@@H]2CO ?
Yeast UUG start: 2

Results for CC(C)NC(=O)Nc1cccc2c1O[C@H](CN(C)C(=O)Nc1ccc(F)cc1)[C@H](C)CN([C@@H](C)CO)C2=O ?
Yeast UUG start: -8

Results for O=C(C[C@@H]1CC[C@H]2[C@@H](COC[C@H](O)CN2Cc2ccccc2F)O1)N[C@H]1CCN(Cc2ccccc2)C1 ?
Yeast UUG start: 5

What do the screens show for `CNC[C@H]1Oc2ccc(NC(=O)Nc3cccc4ccccc34)cc2C(=O)N([C@H](C)CO)C[C@H]1C`?
Yeast UUG start: 2

Results for O=C(c1cccc(F)c1)N1CCCCN2[C@@H](CO)[C@H](c3ccc(-c4cncnc4)cc3)[C@@H]2C1 ?
Yeast UUG start: -4

How did O=C(C1CCCC1)N1C[C@H]2[C@@H](c3ccccc31)[C@@H](CO)N2C(=O)Cc1ccccn1 do in these assays?
Yeast UUG start: -5

How did Cc1ccc(S(=O)(=O)N2C[C@@H](O)COC[C@@H]3O[C@H](CC(=O)N[C@@H]4CCN(Cc5ccccc5)C4)CC[C@H]32)cc1 do in these assays?
Yeast UUG start: 12

What do the screens show for `CC(C)NC(=O)N(C)C[C@H]1OCc2ccccc2-c2ccccc2C(=O)N([C@@H](C)CO)C[C@@H]1C`?
Yeast UUG start: 5

How did COc1ccc(S(=O)(=O)N2CC[C@@H]3[C@H]2c2cc(-c4ccccc4F)ccc2N[C@@H]3CO)cc1 do in these assays?
Yeast UUG start: -9

How did C[C@@H]1CN([C@@H](C)CO)C(=O)c2cccc(NS(=O)(=O)c3ccccc3)c2O[C@H]1CN(C)CC1CC1 do in these assays?
Yeast UUG start: 7

Results for CN(C)CC#Cc1ccc([C@H]2[C@H]3CN(C(=O)NC4CCCC4)CCCCN3[C@H]2CO)cc1 ?
Yeast UUG start: 21

Results for O=C(CC(F)(F)F)N1C[C@@H]2[C@H](c3ccccc31)[C@@H](CO)N2C(=O)C1CCCC1 ?
Yeast UUG start: 15

How did COc1cccc(S(=O)(=O)N2CCCCN3[C@H](CO)[C@@H](c4ccc(C#CC(C)C)cc4)[C@H]3C2)c1 do in these assays?
Yeast UUG start: 17

How did CO[C@H]1CN(C)C(=O)c2ccc(NC(=O)Nc3cccc(Cl)c3)cc2OC[C@H](C)N(C(=O)Nc2c(C)noc2C)C[C@H]1C do in these assays?
Yeast UUG start: -2

Results for COCC(=O)Nc1ccc2c(c1)C(=O)N(C)C[C@H](OC)[C@H](C)CN(C(=O)NC(C)C)[C@H](C)CO2 ?
Yeast UUG start: 1

Results for C[C@@H](NC(=O)[C@@H]1[C@@H](CO)[C@@H]2Cn3c(cccc3=O)[C@H]1N2C(=O)C1CC1)c1ccccc1 ?
Yeast UUG start: -6

What do the screens show for `C[C@H](NC(=O)[C@H]1[C@H](CO)[C@H]2Cn3c(cccc3=O)[C@@H]1N2C(=O)C1CCCC1)c1ccccc1`?
Yeast UUG start: -1

What do the screens show for `C[C@@H]1CN([C@H](C)CO)C(=O)CCCn2nncc2CO[C@@H]1CN(C)C(=O)Nc1ccccc1F`?
Yeast UUG start: 4

Results for CCN1[C@@H]2c3ccc(-c4ccccc4OC)c(=O)n3C[C@H]1[C@H](CO)[C@H]2C(=O)NCc1ccccn1 ?
Yeast UUG start: -10

What do the screens show for `O=C(c1ccccn1)N1CC[C@@H]2[C@@H](CO)Nc3ccc(C#Cc4cccnc4)cc3[C@@H]21`?
Yeast UUG start: 4

What do the screens show for `CO[C@H]1CN(C)C(=O)c2ccc(NC(C)=O)cc2OC[C@H](C)NC[C@@H]1C`?
Yeast UUG start: 0

Results for CCCC(=O)Nc1ccc2c(c1)C(=O)N(C)C[C@@H](OC)[C@H](C)CN(Cc1ccccc1F)[C@H](C)CO2 ?
Yeast UUG start: 4

What do the screens show for `COc1ccc(NC(=O)N(C)C[C@H]2Oc3ccc(NC(=O)Cn4cnnn4)cc3C(=O)N([C@@H](C)CO)C[C@@H]2C)cc1`?
Yeast UUG start: -9

How did O=S(=O)(c1ccccc1)N1CCCCN2[C@@H](CO)[C@@H](c3ccc(C#CC4CCCC4)cc3)[C@@H]2C1 do in these assays?
Yeast UUG start: 13

Results for CNC[C@@H]1Oc2c(NS(=O)(=O)c3ccccc3)cccc2C(=O)N([C@H](C)CO)C[C@H]1C ?
Yeast UUG start: 1

Results for CO[C@@H]1CN(C)C(=O)c2cc(NC(=O)NC(C)C)ccc2OC[C@@H](C)N(Cc2ccc(-c3ccccn3)cc2)C[C@H]1C ?
Yeast UUG start: 7

How did COc1ccccc1S(=O)(=O)N1C[C@H](O)COC[C@@H]2O[C@@H](CC(=O)O)CC[C@H]21 do in these assays?
Yeast UUG start: -13

Results for CC=Cc1ccc2n(c1=O)C[C@@H]1[C@@H](CO)[C@H](C(=O)NCCC)[C@H]2N1Cc1nccs1 (mixture of isomers) ?
Yeast UUG start: -3

Results for O=C(Nc1ccccc1)N1CCCCN2[C@H](C1)[C@H](c1ccc(-c3ccccc3F)cc1)[C@@H]2CO ?
Yeast UUG start: 11

How did CO[C@@H]1CN(C)C(=O)c2cc(NC(=O)C3CCCC3)ccc2OC[C@@H](C)N(S(=O)(=O)c2ccc(Cl)cc2)C[C@H]1C do in these assays?
Yeast UUG start: 3

What do the screens show for `CN1C[C@@H]2[C@H](c3ccccc31)[C@H](CO)N2C(=O)Nc1ccccc1Cl`?
Yeast UUG start: -15

What do the screens show for `CCCNC(=O)[C@H]1[C@H](CO)[C@H]2Cn3c(ccc(-c4ccccc4OC)c3=O)[C@@H]1N2C(=O)NCCC`?
Yeast UUG start: -3

What do the screens show for `O=C(C[C@@H]1CC[C@@H]2[C@H](COC[C@@H](O)CN2C(=O)c2cccnc2)O1)NCc1ccc(-c2ccccc2)cc1`?
Yeast UUG start: -9

How did COCC(=O)Nc1ccc2c(c1)OC[C@H](C)N(Cc1cc(F)ccc1F)C[C@@H](C)[C@H](OC)CN(C)C2=O do in these assays?
Yeast UUG start: 2

How did CO[C@@H]1CN(C)C(=O)c2ccc(NC(C)=O)cc2OC[C@H](C)N(C(=O)C2CCCCC2)C[C@@H]1C do in these assays?
Yeast UUG start: -1

What do the screens show for `CCC(=O)N1CCCCN2[C@@H](CO)[C@H](c3ccc(C#Cc4cccnc4)cc3)[C@@H]2C1`?
Yeast UUG start: -9

How did CCC(=O)N1[C@H](CO)[C@@H](c2ccc(-c3cccc(F)c3)cc2)[C@@H]1CN(C)C(C)=O do in these assays?
Yeast UUG start: 14

Results for Cc1ccc(S(=O)(=O)N2CC[C@@H]3[C@H]2c2cc(-c4ccc(C#N)cc4)ccc2N(C)[C@H]3CO)cc1 ?
Yeast UUG start: -17

What do the screens show for `CCC(=O)N1C[C@H](C)[C@@H](OC)CN(C)C(=O)c2cc(NC(=O)COC)ccc2OC[C@@H]1C`?
Yeast UUG start: 8

Results for Cn1cnc(S(=O)(=O)N2CCCCN3[C@H](CO)[C@@H](c4ccc(C#CC5CCCC5)cc4)[C@H]3C2)c1 ?
Yeast UUG start: 43

How did COc1cccc(C(=O)Nc2ccc3c(c2)C(=O)N(C)C[C@H](OC)[C@H](C)CN(CC2CC2)[C@H](C)CO3)c1 do in these assays?
Yeast UUG start: 3

How did CCC(=O)N1[C@H](CN(C)C(C)=O)[C@@H](c2ccc(C3=CCCCC3)cc2)[C@@H]1CO do in these assays?
Yeast UUG start: 8

Results for C[C@H]1CN([C@@H](C)CO)C(=O)c2cccc(NS(=O)(=O)c3cn(C)cn3)c2O[C@@H]1CN(C)C(=O)Nc1ccc(C(F)(F)F)cc1 ?
Yeast UUG start: -10

Results for COc1ccc(S(=O)(=O)N(C)C[C@@H]2Oc3ccc(NC(=O)CCC(F)(F)F)cc3CC(=O)N([C@H](C)CO)C[C@H]2C)cc1 ?
Yeast UUG start: 16

How did CC(C)NC(=O)N(C)C[C@@H]1Oc2ccc(NS(=O)(=O)c3ccc(F)cc3)cc2CC(=O)N([C@@H](C)CO)C[C@H]1C do in these assays?
Yeast UUG start: 6

How did O=C(Nc1ccc(F)cc1)N1CCCCN2[C@@H](CO)[C@@H](c3ccc(C#Cc4ccccn4)cc3)[C@@H]2C1 do in these assays?
Yeast UUG start: 7

What do the screens show for `CC(C)NC(=O)Nc1ccc2c(c1)C(=O)N([C@H](C)CO)C[C@H](C)[C@H](CN(C)Cc1ccc(Oc3ccccc3)cc1)O2`?
Yeast UUG start: -4

Results for CN1C(=O)c2cc(NC(=O)c3ccc(Cl)cc3)ccc2OC[C@H]2O[C@H](CC(=O)NCc3cccc(F)c3)CC[C@@H]21 ?
Yeast UUG start: -6

Results for O=C(CC(F)(F)F)N1C[C@@H]2[C@H](c3ccccc31)[C@H](CO)N2C(=O)Cc1ccccc1 ?
Yeast UUG start: 8

Nothing new here: an excerpt of the list.
How did CC(C)NC(=O)N(C)C[C@@H]1Oc2ccc(NS(=O)(=O)c3ccc(F)cc3)cc2CC(=O)N([C@@H](C)CO)C[C@H]1C do in these assays?
Yeast UUG start: 6

How did O=C(Nc1ccc(F)cc1)N1CCCCN2[C@@H](CO)[C@@H](c3ccc(C#Cc4ccccn4)cc3)[C@@H]2C1 do in these assays?
Yeast UUG start: 7

What do the screens show for `CC(C)NC(=O)Nc1ccc2c(c1)C(=O)N([C@H](C)CO)C[C@H](C)[C@H](CN(C)Cc1ccc(Oc3ccccc3)cc1)O2`?
Yeast UUG start: -4

Results for CN1C(=O)c2cc(NC(=O)c3ccc(Cl)cc3)ccc2OC[C@H]2O[C@H](CC(=O)NCc3cccc(F)c3)CC[C@@H]21 ?
Yeast UUG start: -6

Results for O=C(CC(F)(F)F)N1C[C@@H]2[C@H](c3ccccc31)[C@H](CO)N2C(=O)Cc1ccccc1 ?
Yeast UUG start: 8
